MT1-MMP act inh: blockers of MT1-MMP proenzyme processing, primary screen, HT1080 RFP-PRO-GFP cells, GFP/RFP fluorescence; hit rate 0.061% among 360,000; GFP/RFP ratio fluorescence, overnight; percent of plate control window, DMSO zero; GFP/RFP ratio change, % at 20 µM;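 active = GFP/RFP ratio change of at least 30% with cell ATP level not reduced by more than half and red fluorescence within 50% of control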; note: strong numbers were not always called active
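Test system: HT1080 cells expressing an RFP-PRO-GFP fluorescent reporter construct / Compound dosing: single-point 20 µM compound, 1% DMSO / Schedule: cells overnight before dosing, compound overnight, 37 °C, 5% CO2 / Evaluation: GFP/RFP fluorescence ratio / Control set: DMSO and RFP-L50D-GFP cell wells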
Env fusion inh: inhibitors of HIV-1 Env-driven cell-cell fusion, primary screen, HeLa-JRFL effector, CEM21 target cells, luciferase | inhibition, % at 12.3 µM | hit rate 1.1% among 360,000;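 active = mean replicate inhibition score of at least 50 and every replicate individually at or above 50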;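 note: 0% = plate neutral controls and 100% = maraviroc near 300 nM; one replicate is shown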
Rce1 inhib: yeast Rce1p protease inhibitors, primary screen, biochemical, fluorescence, cell-free homogeneous. yeast membranes, quenched prenylated peptide cleavage fluorescence. calls only. hit rate 0.27% among 290,000. AID 2563, 2010;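 active = fall in fluorescence gain of 50% or more versus controls, with final raw signal at or below 3038400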;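 note: plate controls were neutral control wells for no effect and wells lacking membranes for full effect; tested at 10 µM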
Target sequence (Q03530 whole entry, looked up): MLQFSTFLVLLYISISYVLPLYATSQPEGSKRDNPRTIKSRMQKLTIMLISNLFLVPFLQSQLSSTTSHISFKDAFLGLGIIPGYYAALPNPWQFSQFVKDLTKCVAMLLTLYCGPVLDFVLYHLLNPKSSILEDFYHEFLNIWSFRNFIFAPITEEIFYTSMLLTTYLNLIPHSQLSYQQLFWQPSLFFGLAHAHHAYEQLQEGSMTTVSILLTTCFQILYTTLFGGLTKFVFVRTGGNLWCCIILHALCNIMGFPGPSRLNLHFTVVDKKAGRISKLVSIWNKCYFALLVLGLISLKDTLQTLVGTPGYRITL
eIF4H FP inh: human eIF4H binding inhibitors, primary screen, translation initiation inhibitor project, biochemical, uHTS, fluorescence polarization | Eukaryotic translation initiation factor 4H (Homo sapiens), Q15056 | eIF4H fluorescence polarization binding assay | inhibition, % at 35 µM | hit rate 0.94% among 290,000 | AID 2012, 2009;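 active = 50% or more with normal probe brightness, or confirmed in later tests; about a fifth of its hits are not listed in these tables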;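 note: calls also rest on retests at 20 µM and on dose response follow-up; 0% = protein and probe with vehicle and 100% = probe without protein; strong numbers were not always called active; many hits fall short of the cut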
UUG fidelity: modulators of yeast start codon fidelity, primary screen, whole organism, S. cerevisiae, single point, plate reader; S. cerevisiae UUG-firefly luciferase reporter, luminescence/redox ratio; activity score, % at 18.7 µM; hit rate 0.13% among 350,000;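 active = replicate mean at a twofold rise or more, about +100% in these data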;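 note: firefly luciferase made from a UUG start codon reports start codon fidelity; reporter light over untreated wells divided by growth signal over untreated wells; some hits fall short of that in this replicate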
PABP polyA inh: PABP poly(A) RNA binding inhibitors, primary screen, biochemical, fluorescence polarization, uHTS; Polyadenylate-binding protein 1 (Homo sapiens), P11940; inhibition, % at 35 µM; hit rate 1% among 290,000; AID 2014, 2009;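 active = 50% or more with normal probe brightness, or confirmed in later tests; about a fifth of its hits are not listed in these tables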;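 note: calls also rest on retests at 20 µM and on dose response follow-up; controls were probe without protein and protein plus probe with vehicle; some compounds called inactive have numbers as strong as hits; many hits fall short of the cut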
CSC inhib: cancer stem cell viability inhibitors, primary screen, luminescence | cancer stem cell-like cells viability | inhibition, % at 7.5 µM | hit rate 1.1% among 300,000;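 active = mean at 75% or more and at least half the replicates too; tested in HMLE shEcad cells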;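 note: 0% = median of negative and 100% = median of positive control wells; the first replicate is given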
MT1-MMP act inh RFP: recorded beside MT1-MMP act inh, whose call it bears; RFP signal change, %; measured here: RFP expression control read;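 0 = vehicle wells; hits needed this value within 50% of zero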
Numbers without * were called inactive; i = inactive; · = no result given.

SMILES	MT1-MMP act inh	MT1-MMP act inh RFP	Env fusion inh	Rce1 inhib	eIF4H FP inh	UUG fidelity	PABP polyA inh	CSC inhib
CCC1(c2ccccc2)C(=O)N(C(=O)OC(C)(C)C)N1C(=O)OC(C)(C)C (centres undefined)	1	3	42	i	·	-5	·	-5
CCCCCSc1nnc(-c2ccccc2NC(C)=O)c(=O)[nH]1	-5	1	-7	i	-1	·	2	·
COc1ccc(NC(=S)N2CCCCC2c2cccnc2)cc1 (centres undefined)	3	3	-7	i	2	2	-6	-21
COc1ccc(Cl)cc1NC(=O)C(C)OC(=O)c1ccc(NS(=O)(=O)c2ccc3[nH]c(=O)[nH]c3c2)cc1 (centres undefined)	3	-4	20	i	-12	-14	-7	3
CCCc1ccc(-c2cc(C(=O)NCCc3ccc(S(N)(=O)=O)cc3)c3ccccc3n2)cc1	-1	-3	-359	i	-3	·	7	-2
COc1cc(S(=O)(=O)n2nc(C)cc2C)c(OC)cc1Cl	8	0	·	i	7	-7	7	-3
Cn1cc(SCC(=O)Nc2ccc3c(c2)OCCO3)c2ccccc21	0	2	-33	i	-2	-9	4	3
N/C(=N\OC(=O)Nc1ccccc1)c1ncc([N+](=O)[O-])s1	3	-3	-17	i	-12	·	2	16
COc1cc(OC)cc(-c2nnc(SCC(=O)N3CCCc4ccccc43)o2)c1	-4	-3	·	i	-12	-2	-1	45
Cc1cc(-n2c(=S)sc3c(=O)n(-c4ccc(F)cc4)c(SCC(=O)O)nc32)ccc1Cl	7	4	16	i	2	-2	20	1
CC(C)c1onc(C(=O)N2CCCCCC2)c1[N+](=O)[O-]	5	3	5	·	-7	·	-2	-13
Cc1ncc(CN2CCCC(C(=O)Nc3ccc(-c4cccc(F)c4)cc3)C2)s1 (centres undefined)	-2	-7	20	i	-1	6	0	101*
CCC1(C)CC(CC(=O)O)(c2ccccc2OC)CCO1 (centres undefined)	3	0	·	i	-5	-13	12	14
O=C(NNC(=O)c1cc2ccccc2cc1O)c1cccs1	4	4	-16	i	-9	·	-1	11
C=CCn1cccc(C(=O)Nc2cc(OC)c(OC)c(OC)c2)c1=O	6	2	-18	i	2	·	3	-6
C=CCNC1=C(Cl)C(=O)N(c2ccccc2Cl)C1=O	-2	3	·	i	3	-15	-4	-4
CCCCN(C(=O)c1ccc2c(c1)OCCO2)c1c(N)n(CC(C)C)c(=O)[nH]c1=O	1	3	-7	i	·	·	·	1
Nc1nc(Br)c2c(F)cccc2c1-c1ccc(F)cc1	-5	-1	·	i	-9	-16	-2	·
Cc1noc(C)c1COc1cccc(C(=O)Nc2ccc(C#N)cc2)c1	8	1	4	i	-1	-40	-3	-7
Cc1cc(C)cc(N2C(=O)CCN(Cc3ccccc3)C2=O)c1	-3	2	-5	i	-3	-19	0	-11

Some of the entries so far, with values under each structure:
Below each compound: MT1-MMP act inh | MT1-MMP act inh RFP | Env fusion inh | Rce1 inhib | eIF4H FP inh | UUG fidelity | PABP polyA inh | CSC inhib
C=CCNC1=C(Cl)C(=O)N(c2ccccc2Cl)C1=O
 : -2 | 3 | · | i | 3 | -15 | -4 | -4
CCCCN(C(=O)c1ccc2c(c1)OCCO2)c1c(N)n(CC(C)C)c(=O)[nH]c1=O
 : 1 | 3 | -7 | i | · | · | · | 1

The listing picks up, starting two compounds before the break.
SMILES	MT1-MMP act inh	MT1-MMP act inh RFP	Env fusion inh	Rce1 inhib	eIF4H FP inh	UUG fidelity	PABP polyA inh	CSC inhib
Cc1noc(C)c1COc1cccc(C(=O)Nc2ccc(C#N)cc2)c1	8	1	4	i	-1	-40	-3	-7
Cc1cc(C)cc(N2C(=O)CCN(Cc3ccccc3)C2=O)c1	-3	2	-5	i	-3	-19	0	-11
O=C1CS(=O)(=O)N(Cc2cccc(F)c2)c2ccc(Br)cc21	9	3	7	·	·	-10	·	34
O=C(O)c1ccc(Cl)c(S(=O)(=O)N2CCCC2)c1	-9	2	-4	i	21	·	4	4
COC(=O)[C@H](Cc1ccccc1)NS(=O)(=O)N[C@@H](Cc1ccccc1)C(=O)OC	4	6	-11	·	·	-12	·	-6
CCOc1ccccc1Oc1coc2cc(OCC(=O)O)ccc2c1=O	-8	-4	-2	i	2	1	-11	-11
CCC1=NN(C(=O)c2ccccc2O)C(O)(c2ccccc2)C1 (centres undefined)	-1	-8	14	i	2	-32	6	79*
Cc1ccc(NC(=O)c2cc(S(=O)(=O)N3CCCC3)c[nH]2)c(C)c1	-2	0	-18	i	21	-26	9	-9
COc1cc(N/C(N)=N/c2nc(C)cc(C)n2)c(OC)cc1Cl	0	-1	8	i	-7	·	-12	6
Cn1c(-c2sc3cc(C(F)(F)F)cnc3c2-c2ccccn2)n[nH]c1=S	5	2	1	i	-8	-8	-2	7
Cc1ccc(OC(=O)C2CCN(C(=O)c3ccccc3C)CC2)c(Br)c1	0	-3	·	i	·	3	·	-6
COc1cc(OC)c(/C=N/NC(N)=S)cc1Br	5	-1	-104	i	-1	·	2	1
C=CCNC(=O)CSc1ncc2c(n1)-c1c(csc1SC)CC2	1	-3	4	i	-11	-10	-2	-4
CCCCCC(=O)Nc1sc(C)c(C)c1C#N	1	4	12	i	2	·	-6	-14
O=C1N(CN2CCC3(CC2)OCCO3)c2ccccc2C12OCCCO2	-4	0	-44	i	3	-15	-2	-2
C=CCOc1c(Br)cc(CNc2ccc(NC(=O)C(C)C)cc2)cc1OCC	6	6	22	i	2	-22	-2	19
CCOc1ccc(N2C(=O)Nc3ccccc3C2(O)C(=O)NCc2ccco2)cc1 (centres undefined)	1	-1	-4	i	-8	·	0	-12
CCSc1nnc(NC(=O)CSc2nccn2-c2cc(C)cc(C)c2)s1	·	·	·	i	-7	·	-2	8
CC(=O)Nc1ccc(NC(=O)CSc2nnnn2-c2ccc3c(c2)OCCO3)cc1	3	0	6	i	-13	·	-12	0
COc1ccccc1NC(=O)c1c(C)nc2ccccc2c1C(=O)O	-7	-1	13	i	-9	5	14	-16
CC1CC(C)CN(C(=O)COC(=O)c2ccc[nH]c2=O)C1 (centres undefined)	4	1	·	i	-5	-5	10	-9
CSC(=NC#N)N1CCN(C(=NC#N)SC)CC1	1	0	20	i	2	-12	1	-4
COc1ccc(Cl)cc1N(CC(=O)Nc1ccccc1C(=O)N1CCCC1)S(C)(=O)=O	-1	0	-1	i	-11	-25	7	-9
CCOc1ccc2c(c1)s/c(=N\S(=O)(=O)c1ccc(OC)cc1)n2C(F)F	2	-7	·	i	-2	·	7	5
Cc1ccc(C2/C(=C(\O)c3c(C)nc4ccccn34)C(=O)C(=O)N2CCN(C)C)o1 (centres undefined)	0	4	4	i	4	·	18	-14
O=C(CN1C(=O)/C(=C/c2ccco2)SC1=S)NC1CCS(=O)(=O)C1 (centres undefined)	13	24	2	i	74*	9	51*	-1
CC(C)C(C(=O)Nc1sc2c(c1C#N)CCCCC2)N1C(=O)c2ccccc2C1=O (centres undefined)	1	2	·	i	8	-20	21	-1
c1csc(Cc2nc(-c3ccc(-n4cccc4)cc3)no2)c1	0	-6	-14	i	·	-35	·	·
c1ccc(Cc2nn3c(COc4ccccc4)nnc3s2)cc1	-4	2	-44	i	-6	-14	6	-4
CN(CCc1ccccn1)C(=S)Nc1ccc(Cl)c(Cl)c1	3	0	5	i	-8	·	-4	-1
COc1ccc2c(c1)C(=O)OC2CC(=O)O (centres undefined)	4	6	-4	i	-3	8	2	-16
CCN(CC)CC(=O)n1c2c(c3ccccc31)CCCC2	-2	-2	·	i	-11	10	2	-6
O=C(Nc1nc(-c2ccccn2)cs1)Nc1ccc(F)cc1F	2	-12	8	i	10	-23	2	-14
C/C(=N/NC(=O)c1ccncc1)c1ccccc1	-1	0	-11	i	-4	-2	-5	-8
CCC(=O)NC(=S)Nc1ccc(NC(=O)c2cc3ccccc3o2)c(OC)c1	5	6	-7	i	-6	·	0	9
CCOC(=O)C1(Cc2cccc(OC)c2)CCN(Cc2cccc(OC)c2O)CC1	-6	-9	17	i	-13	·	10	-3
CCOC(=O)CCC(=O)c1c(C)oc2ccc(OC)cc12	-1	-1	·	·	-8	-1	-9	·
CC(C)(C)OC(=O)C[C@H]1C/C=C\C[C@@H](CC(=O)N(CCO)Cc2ccccc2)C(=O)N2CCC[C@H]2COC1=O	2	-1	-8	·	·	-28	·	1
CC(NC(=O)CCc1ccccc1)c1cc2c(cc1Cl)OCCO2 (centres undefined)	-3	-8	-2	i	-9	1	-3	-3
COc1cccc(CNC[C@H]2O[C@@H](n3ccc(N)nc3=O)[C@H](O)[C@@H]2O)c1OCc1ccc(F)cc1Cl	-1	0	20	·	·	-21	·	·
C=CCOc1ccc(C(=O)O)cc1Cl	-5	2	9	i	-13	-19	0	-7
O=[N+]([O-])c1ccc(O)c(/C=N/n2cnc3ccccc32)c1	-16	-32	·	i	-4	-24	2	-3
O=C(OCc1cc(Cl)cc2c1OCOC2)c1cccnc1Cl	-2	-2	-19	·	·	-11	·	-14
Cc1cccc(C#N)c1NC1=CC(=O)CC(C)(C)C1	4	4	·	i	-11	-19	15	-16
O=c1[nH]nc(SCc2nc3ccccc3s2)n1C1CC1	3	3	0	i	2	-15	-9	-10
Cc1cc(NC(=O)CSc2ncnc3c2cnn3-c2ccccc2)no1	3	1	2	i	-1	-51	2	-7
COC(=O)CN1C(=S)N(c2ccc(F)cc2)C(=O)C1CC(=O)Nc1ccccc1 (centres undefined)	4	11	10	i	1	1	6	-25
Cc1ccc(-c2cc(C(=O)O)c3ccccc3n2)s1	-3	0	-22	i	-16	-8	5	1
COc1cccc(-c2cc(C(=O)N3C(C)CCCC3C)no2)c1 (centres undefined)	-2	-2	-137	i	6	-9	2	-7
COc1ccc(NC(=O)CCCN2C(=O)C3CC=CCC3C2=O)cc1 (centres undefined)	-2	-3	1	i	2	0	2	-12
O=C(OCC(=O)N1CCCc2ccccc21)c1ccc(Cl)nc1	0	2	9	i	-1	-1	6	1
Cc1ccc(NC(=O)CCC(=O)NNC(=O)c2ccccc2)c(C)c1	-1	2	21	i	6	3	-7	-8
CCOC(=O)CCSc1nc(-c2ccccc2)cc(C(F)(F)F)n1	4	9	·	i	-10	-21	8	9
COc1ccc2oc(C(=O)OCC(=O)Nc3ccccc3)c(C)c2c1	0	4	-260	i	16	-11	0	0
CCC(=O)NCCNC(=O)c1c(SC)nsc1SC	0	2	·	i	-12	·	-10	4
CC(C)CCn1c(CN2CCOCC2)nc2c1c(=O)n(C)c(=O)n2C	1	7	-57	i	2	5	21	-13
CCOC(=O)c1sc(C)c2c1NC1(CCCCCC1)NC2=O	3	-1	·	i	-10	0	-4	5
COc1ccc(CNC(=O)c2cc(S(=O)(=O)N3CCCCC3)ccc2N2CCOCC2)cc1OC	9	-2	-5	·	·	5	·	·
O=C(NNC(=O)c1sccc1-n1cccc1)c1ccc(Cl)cc1	2	-3	·	i	-11	·	-10	5
O=C(Nc1ccc(C(=O)O)cc1)/C(=C/c1ccc([N+](=O)[O-])cc1)NC(=O)c1ccccc1	1	-5	5	i	1	·	5	1
O=C(/C=C/c1ccccc1)NC(NC(=S)Nc1ccc(Cl)cc1Cl)C(Cl)(Cl)Cl (centres undefined)	-11	-24	·	i	-13	·	-6	110*
c1ccc(-c2noc(CSc3nnnn3-c3ccccc3)n2)cc1	-1	-4	1	i	2	-15	3	9
O=C(/C=C/c1ccccc1)NCCSCc1ccc(Cl)cc1	1	0	-13	i	-4	-16	-5	-21
COc1ccc(Cl)cc1C(=O)NCCS(=O)(=O)N1CCN(c2ccccc2F)CC1	0	0	27	i	3	-8	8	-4

Assay outcomes from PubChem.

The order is random; any-hit rate near 3%.
